Compound activity: PubChem BioAssay, several laboratories
eIF4H FP inh: inhibitors of RNA binding by human eIF4H; Q15056; eIF4H fluorescence polarization binding assay; inhibition, % at 35 µM; 0.94% of 290,000 active;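 active = 50% or more with normal probe brightness, or confirmed in later tests; about a fifth of its hits are not listed in these tables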;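 also: calls also rest on retests at 20 µM and on dose response follow-up; 0% = protein and probe with vehicle and 100% = probe without protein; strong numbers were not always called active; many hits fall short of the cut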
UUG fidelity: alters start codon recognition fidelity in yeast; AID 602363; 0.13% of 350,000 active; S. cerevisiae UUG-firefly luciferase reporter, luminescence/redox ratio; activity score, % at 18.7 µM;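 active = replicate mean at a twofold rise or more, about +100% in these data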;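 also: firefly luciferase made from a UUG start codon reports start codon fidelity; reporter light over untreated wells divided by growth signal over untreated wells; some hits fall short of that in this replicate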
PABP FP inh: PABP-poly(A) binding inhibition; AID 2014; inhibition, % at 35 µM; 1% of 290,000 active; PABP-poly(A) RNA binding, fluorescence polarization;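 active = 50% or more with normal probe brightness, or confirmed in later tests; about a fifth of its hits are not listed in these tables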;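 also: calls also rest on retests at 20 µM and on dose response follow-up; controls were probe without protein and protein plus probe with vehicle; some compounds called inactive have numbers as strong as hits; many hits fall short of the cut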
CSC inhib: blocks cancer stem cells; inhibition, % at 7.5 µM; 1.1% of 300,000 active; cancer stem cell-like cells viability, luminescence; AID 2717;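 active = mean at 75% or more and at least half the replicates too; tested in HMLE shEcad cells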;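 also: 0% = median of negative and 100% = median of positive control wells; the first replicate is given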
Rce1 inhib: blocks yeast Ras-converting enzyme | yeast membranes, quenched prenylated peptide cleavage fluorescence | calls only | 0.27% of 290,000 active | AID 2563;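 active = fall in fluorescence gain of 50% or more versus controls, with final raw signal at or below 3038400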;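 also: plate controls were neutral control wells for no effect and wells lacking membranes for full effect; tested at 10 µM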
Target sequence (Q03530 whole entry, looked up): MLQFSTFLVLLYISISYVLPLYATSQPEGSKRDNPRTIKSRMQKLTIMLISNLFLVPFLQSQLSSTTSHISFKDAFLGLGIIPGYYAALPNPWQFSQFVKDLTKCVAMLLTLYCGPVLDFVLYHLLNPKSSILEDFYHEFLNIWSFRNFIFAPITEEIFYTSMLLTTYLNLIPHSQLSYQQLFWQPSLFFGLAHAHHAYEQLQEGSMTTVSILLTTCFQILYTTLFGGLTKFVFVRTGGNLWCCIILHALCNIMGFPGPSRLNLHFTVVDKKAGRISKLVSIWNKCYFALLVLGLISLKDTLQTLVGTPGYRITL
MT1-MMP act inh: MT1-MMP (human) activation inhibition; P50281; AID 651647; 0.061% of 360,000 active; HT1080 RFP-PRO-GFP cells, GFP/RFP ratio fluorescence, overnight; percent of plate control window, DMSO zero; GFP/RFP ratio change, % at 20 µM;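 active = GFP/RFP ratio change of at least 30% with cell ATP level not reduced by more than half and red fluorescence within 50% of control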; also: strong numbers were not always called active
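Assay system: HT1080 cells carrying an RFP-PRO-GFP reporter | Dosing: Single dose of 20 µM compound, 1% DMSO final | Incubation: Cells overnight before dosing, compound overnight, 37 °C, 5% CO2 | Evaluation: GFP/RFP fluorescence ratio | Control set: DMSO and RFP-L50D-GFP cell wells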
Env fusion inh: HIV envelope-mediated fusion inhibition; HeLa-JRFL Env/CEM21 cell fusion, luciferase; inhibition, % at 12.3 µM; 1.1% of 360,000 active;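 active = mean replicate inhibition score of at least 50 and every replicate individually at or above 50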;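 also: 0% = plate neutral controls and 100% = maraviroc near 300 nM; one replicate is shown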
MT1-MMP act inh RFP: further read-out of MT1-MMP act inh, marked with its call; RFP signal change, %; measured here: RFP expression control read;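 0 = vehicle wells; hits needed this value within 50% of zero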
* marks the source's active call; other numbers are inactive results; i = inactive; . = not tested or not shown.

SMILES | eIF4H FP inh | UUG fidelity | PABP FP inh | CSC inhib | Rce1 inhib | MT1-MMP act inh | MT1-MMP act inh RFP | Env fusion inh
COC(=O)c1ccc(Nc2cc(C)nc3ncnn23)cc1 | -5 | -19 | -3 | -9 | i | -2 | 3 | -43
C[C@H](NS(=O)(=O)c1ccccc1F)C(=O)OCC(=O)N1CCc2ccccc21 | -5 | . | -4 | -15 | i | 0 | 3 | .
CCOc1ccc(OCC)c(S(=O)(=O)N2CCCCC2C)c1 (stereo unspecified) | -2 | 4 | 5 | -12 | i | 1 | -2 | -4
O=C(Oc1ccc2cc(Br)ccc2c1)N1CCCCCC1 | -4 | . | -9 | -1 | i | . | . | .
CCn1c(-c2ccccn2)nc2cc(S(=O)(=O)N(C)C)ccc21 | -1 | -3 | 19 | -15 | i | 0 | 1 | -7
CCOCCCNC(=O)c1ccc(NC(=O)C2CCCO2)cc1 (stereo unspecified) | -3 | 1 | 2 | 17 | i | 3 | 4 | -6
Cc1ccccc1-c1nnc(-c2ccccc2C)o1 | 1 | -9 | -17 | 6 | i | 0 | 6 | -198
CN(C)S(=O)(=O)c1cc(NC(=O)COC(=O)Cc2ccc(Br)cc2)ccc1Cl | 2 | 7 | -5 | 14 | i | 2 | 7 | .
Cn1cccc1Cc1nnc(SCC(=O)N2CCOCC2)n1CCc1ccccc1 | -10 | -13 | -25 | -9 | i | -1 | 0 | 24
O=C(CNS(=O)(=O)c1ccc(Br)cc1)NCc1ccncc1 | -6 | -15 | 2 | -5 | i | -3 | 0 | -3
COCCCNC(=O)C1CCC(CNS(=O)(=O)c2ccc(C)cc2)CC1 (stereo unspecified) | 1 | . | -10 | -18 | i | . | . | .
O=C(NCCN1CCN(c2ccc([N+](=O)[O-])cc2)CC1)NCc1ccccc1 | -7 | -11 | -9 | 34 | i | -3 | -8 | 4
Cc1cccc(C(=O)NCC(=O)N(C)Cc2nc3ccccc3c(=O)[nH]2)c1 | . | 5 | . | -8 | . | 0 | 0 | .
Cn1c(N)c(C(=O)COC(=O)c2cc(S(=O)(=O)N3CCCCC3)ccc2Cl)c(=O)n(C)c1=O | -10 | . | 3 | -4 | i | 4 | 2 | 19
Cc1ccc(CNC(=O)C(=O)NCCC2=CCCCC2)cc1 | 3 | . | -3 | -17 | i | 3 | 3 | 2
CC(CC(=O)O)CC(=O)Nc1ccc(S(N)(=O)=O)cc1 (stereo unspecified) | 2 | -6 | 2 | -24 | i | -2 | 1 | .
CCCCN(C=O)c1c(CC)nc2ccc(C(=O)NCCCn3ccnc3)cn12 | . | -7 | . | . | . | -1 | 3 | -5
Cn1ncc2c(O/N=C(\N)c3ccc(C(F)(F)F)cc3)ncnc21 | 0 | 19 | -1 | 0 | i | -12 | -18 | -16
O=C(c1ccco1)N1N=C(c2cccs2)CC1c1ccco1 (stereo unspecified) | 8 | . | -4 | -10 | i | -1 | 3 | -13
CCN1CCN(c2nc(C)nc3c2sc(=S)n3C)CC1 | -11 | -10 | -11 | . | . | -4 | 0 | -2
CCN1CCN(C(=O)CSCc2nc(-c3ccc(OC)c(OC)c3)oc2C)CC1 | -3 | -14 | 3 | -23 | i | 2 | 4 | 1
CCOc1ccc(N(CC(=O)NCc2ccc(F)cc2)S(=O)(=O)c2c(C)noc2C)cc1 | 1 | 5 | 2 | 4 | i | -4 | 1 | -33
CCOC(=O)N1CCN(C(=O)C2CCN(S(=O)(=O)c3ccc(NC(C)=O)cc3)CC2)CC1 | -4 | 0 | 1 | -5 | i | 0 | -2 | 6
C[C@H](O)[C@@H]1C(=O)N2CCc3ccc(N4CCOCC4)cc3[C@@H]2C[C@@H]1N(C)C(=O)C(C)(C)C | . | 15 | . | . | . | 1 | 6 | -56
COc1ccccc1NC(=O)NCCN1CCN(c2cccc(Cl)c2)CC1 | -6 | -5 | 0 | 8 | i | -3 | -5 | 26
CCOc1ccc(NC(=O)CN(C)C(=O)CN2C(=O)c3ccc([N+](=O)[O-])cc3C2=O)cc1OCC | . | 7 | . | . | . | 2 | 3 | -8
COc1ccc2occ(NC(C)=O)c2c1 | -11 | -20 | 0 | -5 | i | -6 | -4 | -189
Cc1ccc(S(=O)(=O)NCCC(=O)NC2CCCC2)cc1 | -2 | . | -14 | . | . | 13 | 5 | 1
COc1ccc(-n2c(SCC(=O)/C(C#N)=C(\C)N)nc3ccccc3c2=O)cc1OC | 8 | . | 6 | -7 | i | -1 | -1 | -15
CCOC(=O)C(NC(C)=O)(OCc1ccc(F)cc1)C(F)(F)F (stereo unspecified) | -1 | -22 | -2 | -6 | i | 4 | 4 | .
Cc1c(C#N)c(SCC(N)=O)nc2c1CCCC2 | -4 | -16 | -6 | -8 | i | -4 | -4 | .
O=C(NCCc1ccc(F)cc1)Nc1ccccc1Cl | -4 | -15 | 5 | 8 | i | -3 | -2 | 7
O=C(C1CCC1)N1CCc2cc(S(=O)(=O)NCCCN3CCCCC3)ccc21 | 22 | -10 | 10 | 20 | i | 1 | 1 | -7
O=C(CN1C(=O)C2C3C=CC(C3)C2C1=O)NCc1ccccc1 (stereo unspecified) | -4 | -10 | 1 | 11 | i | 5 | 4 | -21
CCOC(=O)N1CCN(S(=O)(=O)c2ccc3c4c(cccc24)C(=O)N3)CC1 | 2 | -8 | 5 | -6 | . | -1 | 1 | -7
COc1cc(CN(C(=S)NCC(=O)NC2CC2)C2CCCC2)cc(OC)c1OC | -3 | -14 | 12 | 6 | i | -3 | 2 | 16
CC(C)C[C@H](NC(=O)[C@@H]1Cc2ccccc2CN1)C(=O)Nc1ccc(C(C)C)cc1 | -13 | -18 | -5 | -1 | i | -1 | 4 | 8
Cc1ccc(C(=O)NCCNC(=O)COc2ccc(Cl)cc2)cn1 | -7 | -9 | 2 | . | i | -1 | 0 | 1
COC(=O)c1cc(C(=O)N2CCOCC2)cc([N+](=O)[O-])c1 | -14 | . | -12 | -10 | i | -6 | -2 | 7
COc1ccc2[nH]c3c(c2c1)CCN1C(=O)C(CC(=O)NCC24CC5CC(CC(C5)C2)C4)C[C@H](C(=O)N2CCOCC2)[C@@]31CCC1CCCC1 (stereo partly specified) | . | -18 | . | . | . | -30 | -31 | -32
CC(=O)NCCc1ccc(S(=O)(=O)N(C)C2CCS(=O)(=O)C2)cc1 (stereo unspecified) | 0 | -12 | -15 | 19 | i | 8 | 0 | .
COc1cccc(/C=N/NC(=S)Nc2cccc(C(=O)O)c2)c1 | -3 | . | -4 | -6 | . | 1 | 5 | -37
Cc1oc(-c2ccccc2F)nc1CS(=O)CC(=O)NCc1ccc(Cl)cc1 (stereo unspecified) | -3 | . | 1 | -12 | i | 0 | 2 | -18
CN(Cc1n[nH]c(=S)n1C)S(=O)(=O)c1ccccc1 | -2 | 5 | 5 | -8 | i | 7 | 3 | 8
CC(C)C1O/C(=N/C(=O)Nc2ccc(Cl)c(Cl)c2)NC1=O (stereo unspecified) | -9 | -13 | -8 | 49 | i | -4 | -6 | -6
CC(C)Oc1ccccc1/C=N/n1nnnc1N | . | . | . | 1 | i | 2 | -1 | 1
O=C(COC(=O)C1CCCO1)Nc1cccc(C(F)(F)F)c1 (stereo unspecified) | 5 | -4 | -3 | -6 | i | -3 | -15 | -6
CC(C)(C)NC(=O)CN(C(=O)C1(C)CC(=O)N=C2C=CC=CN21)C1CCCC1 (stereo unspecified) | 0 | 7 | -5 | 2 | i | -1 | 4 | -4
CSc1cccc(NC(=O)CN(C)S(=O)(=O)c2ccccc2)c1 | -3 | -10 | 2 | 28 | i | 6 | 1 | .
CC1=C(C)CC(C(=O)NCc2ccccc2F)C(C(=O)O)C1 (stereo unspecified) | 2 | 62 | 2 | -13 | i | -6 | -8 | 4
COc1ccccc1N(CC(=O)NCCSC(C)(C)C)S(C)(=O)=O | -1 | -5 | -1 | 11 | i | 0 | 7 | .
COc1ccccc1C(=O)NCCCNc1ccc([N+](=O)[O-])cc1 | -10 | . | 8 | . | i | 3 | 3 | -7
CCN(CC(=O)NCc1cccs1)C(=O)c1cccc(S(=O)(=O)Nc2cccc(C)c2)c1 | . | -16 | . | 7 | . | 1 | 0 | .
CCN(CC(=O)Nc1ccc(OC)cc1)CC(=O)Nc1cccc(C#N)c1 | 11 | -2 | 8 | -3 | i | 8 | 5 | 3
COc1ccc(NC(=O)C2CC(=O)OC2(C)C)cc1 (stereo unspecified) | 0 | -8 | 4 | 1 | i | -2 | 1 | -63
O=C(NCc1ccco1)/C(=C/C=C\c1ccccc1)NC(=O)c1ccc(Br)o1 | -1 | . | 16 | 12 | i | 1 | 0 | -19
O=C(CSc1cn[nH]n1)Nc1ccc(Cl)cc1Cl | -6 | -18 | -1 | . | i | -4 | 2 | -34
COc1ccc(NC(=O)CSc2nnc(NC(=O)C3CC3)s2)cc1OC | -1 | 0 | 5 | -12 | i | -3 | 1 | .
CCOC(=O)c1sc(=NC(=O)c2ccc(Cl)s2)n(C)c1C | 7 | . | 2 | -13 | i | 1 | 3 | -52
CCCCN(C(=O)CSc1nnc(Nc2ccccc2)s1)c1c(N)n(CCC)c(=O)[nH]c1=O | -4 | . | -5 | -16 | . | -4 | -1 | -14
COc1ccc(Cc2nnc(NC(=O)c3c(-c4ccccc4)noc3C)s2)cc1OC | 2 | 5 | -12 | 2 | i | 1 | 0 | -6
COc1ccc(C(=O)n2cnnc2N)cc1 | 3 | -17 | -2 | 0 | i | 2 | 2 | -19

Looked up by structure from the entries so far:
SMILES | eIF4H FP inh | UUG fidelity | PABP FP inh | CSC inhib | Rce1 inhib | MT1-MMP act inh | MT1-MMP act inh RFP | Env fusion inh
CC1=C(C)CC(C(=O)NCc2ccccc2F)C(C(=O)O)C1 (stereo unspecified) | 2 | 62 | 2 | -13 | i | -6 | -8 | 4
Cc1ccc(C(=O)NCCNC(=O)COc2ccc(Cl)cc2)cn1 | -7 | -9 | 2 | . | i | -1 | 0 | 1

Filtered by structure, the entries above containing a nitro group on carbon (four)
SMILES | eIF4H FP inh | UUG fidelity | PABP FP inh | CSC inhib | Rce1 inhib | MT1-MMP act inh | MT1-MMP act inh RFP | Env fusion inh
O=C(NCCN1CCN(c2ccc([N+](=O)[O-])cc2)CC1)NCc1ccccc1 | -7 | -11 | -9 | 34 | i | -3 | -8 | 4
CCOc1ccc(NC(=O)CN(C)C(=O)CN2C(=O)c3ccc([N+](=O)[O-])cc3C2=O)cc1OCC | . | 7 | . | . | . | 2 | 3 | -8
COC(=O)c1cc(C(=O)N2CCOCC2)cc([N+](=O)[O-])c1 | -14 | . | -12 | -10 | i | -6 | -2 | 7
COc1ccccc1C(=O)NCCCNc1ccc([N+](=O)[O-])cc1 | -10 | . | 8 | . | i | 3 | 3 | -7
